Compound activity from PubChem.
ClpP mod = qHTS Assay for Activators of ClpP; ATP-dependent Clp protease proteolytic subunit (Bacillus subtilis (strain 168)), P80244; purified B. subtilis ClpP, FRET peptide cleavage, 20 min; Potency, µM (highest dose often 57.5 µM), without a hit: at the top dose activity change, negative = active; actives 1.9% (n = 340,000); AID 651965, 2013; active = well fitted falling curve with a large enough effect; inconclusive = small, poorly fitted or top-dose-only effect; inactive = no such curve, though single readings can be large or run the other way; note: potency is the fitted concentration of half-maximal effect; the source files actives as falling curves though it sought activators and does not explain the sign; nearly all actives have a fitted effect of over 65% in size; many hits overshoot -100%
Target sequence (P80244 whole entry, looked up): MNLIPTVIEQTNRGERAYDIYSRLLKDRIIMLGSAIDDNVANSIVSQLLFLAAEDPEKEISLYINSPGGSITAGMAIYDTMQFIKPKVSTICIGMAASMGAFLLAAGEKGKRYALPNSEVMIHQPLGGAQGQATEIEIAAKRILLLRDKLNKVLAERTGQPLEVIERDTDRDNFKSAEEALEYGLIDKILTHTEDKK
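Buffer: 100 mM Tris/HCl pH8, 100 mM KCl, 0.05% low protease BSA, 2.5% glycerol, 0.01% Tween-20. ClpP 10 microg/mL final; 20 min RT; delta FRET normalized to ADEP and DMSO controls.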
Menin-MLL FL inh = menin-MLL binding inhibition, fluorescein peptide | Fluorescence polarization, fluorescein-MLL peptide displacement from menin | FP activity change, % at 61.4 µM | 290,000 tested, under 10 active; inconclusive = falling polarisation curve, or a change in total fluorescence; inactive = total fluorescence flat and polarisation flat or rising; no compound was filed as active; the % refers to the polarisation; negative = inhibition;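 note: % of control where 0% means no effect; inhibitors lower the polarisation; unlabelled MLL peptide was the positive control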
gsp antag = antagonists of gsp mutant (McCune-Albright syndrome). AID 624288. Potency, µM (top dose mostly 76.9 µM), inactives show at the highest dose activity change, negative = inhibition, actives largely listed as inhibitors. gsp-mutant cells, cAMP HTRF, 30 min; control for the full effect not named in the record. actives 0.4% (n = 340,000); active = falling curve of any shape with a large fitted effect; inconclusive = falling curve, mostly with a smaller effect; inactive = flat or rising curve; cell line not stated here;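 note: intracellular cAMP measured with PDE inhibitor Ro 20-1724 present during compound exposure; potency is the fitted concentration of half-maximal effect; % is set by controls: 0 for no effect and ±100 for the full control effect; nearly all actives have a fitted effect of over 65% in size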
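HTRF cAMP read-out (cAMP-d2 plus anti-cAMP antibody-K in lysis buffer, 30 min RT). Before lysis, cells are exposed to compounds with […] for 30 min at 37C in DPBS containing Ca/Mg, BSA and Tween 20.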
Sfp PPTase inh = blocks B. subtilis Sfp PPTase activity | Potency, µM, without a hit: max response, negative = inhibition, usual class: inhibitors | Q9F4F7 | Biochemical Sfp PPTase activity, qHTS | actives 3.5% (n = 310,000); active = well fitted inhibition curve with a large enough effect; inconclusive = small, poorly fitted or top-dose-only effect, or another doubt; inactive = no such curve, though single readings can be large or run the other way;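 note: the enzyme is Sfp with the accession as filed and its product quenches rhodamine fluorescence; potency is the fitted concentration of half-maximal effect; 0% = enzyme reaction without inhibitor and -100% = no enzyme wells; top concentration of the series not given in the record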
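Fluorescence-quenching assay with 15 nM Sfp, 5 uM rhodamine-CoA and 12.5 uM BHQ-2-labelled ybbR peptide in pH 7.6 Hepes/MgCl2 buffer. Enzyme was pre-incubated with compound for 15 min at room temperature. Rate was taken from the 30-min fluorescence change (525/598 nm).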
D2 agonist = agonists of human D2 dopamine receptor (beta-arrestin); activation, % (no concentration beside the values); AID 624465; DiscoveRx PathHunter D2 beta-arrestin, luminescence, 90 min; 100% = 57 uM dopamine signal; P14416; actives 0.084% (n = 360,000); in the data active = activation above about 40%; inconclusive = about 15% to 40%; inactive = below about 15%; note: compound concentration not given in the record; the text of the record calls up to 30% inactive
Target sequence (P14416 whole entry, looked up): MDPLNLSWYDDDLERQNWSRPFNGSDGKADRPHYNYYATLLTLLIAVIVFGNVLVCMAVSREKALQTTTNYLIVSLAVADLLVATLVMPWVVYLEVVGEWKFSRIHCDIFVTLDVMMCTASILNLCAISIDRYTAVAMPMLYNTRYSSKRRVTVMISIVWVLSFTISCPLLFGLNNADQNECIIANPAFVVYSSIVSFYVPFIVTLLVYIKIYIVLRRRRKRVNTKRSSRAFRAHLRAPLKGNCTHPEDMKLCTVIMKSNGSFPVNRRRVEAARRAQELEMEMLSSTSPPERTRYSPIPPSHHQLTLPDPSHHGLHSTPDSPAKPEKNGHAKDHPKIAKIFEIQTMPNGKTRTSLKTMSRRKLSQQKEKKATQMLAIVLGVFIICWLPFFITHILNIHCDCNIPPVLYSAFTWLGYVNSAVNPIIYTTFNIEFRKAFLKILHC
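DiscoveRx PathHunter D2 beta-arrestin cells (2,100/well) attached overnight, then compound-stimulated 90 min at 37 C in HBSS/10 mM HEPES/0.1% Tween-20 buffer; beta-galactosidase complementation read by luminescence after 1 h at ambient temperature. Dopamine 57 uM final (EC100) as control.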
gsp ag = agonists of gsp mutant (McCune-Albright syndrome). actives 0.13% (n = 340,000). gsp mutant cells, cAMP HTRF, 30 min; control for the full effect not named in the record. Potency, µM (titrated, usually from 76.9 µM), inactives show at the highest dose activation (cAMP increase), usual class: activators; active = well fitted activation curve with a large enough effect; inconclusive = small, poorly fitted or top-dose-only effect, or another doubt; inactive = no such curve, though single readings can be large or run the other way; cell line not stated here;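 note: phosphodiesterase inhibitor Ro 20-1724 added with compounds to block cAMP breakdown; potency is the fitted concentration of half-maximal effect; nearly all actives have a fitted effect of over 60% in size; about a fifth of the inactives were tested at one dose only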
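Cells stably selected in G418 were plated at 2000/well, grown 16-24 hr, then given compounds in DMSO with the PDE inhibitor […] (300 uM solution added) for 30 min at 37C; cAMP was read by HTRF.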
PINK1 expr mod = PINK1 expression modulation. Potency, µM (top dose mostly 76.6 µM), for the others: at the highest dose activation (PINK1 increase), usual class: activators. AID 624263. PINK1 immunofluorescence, high-content cytometry, 24 h. actives 0.2% (n = 410,000); active = well fitted activation curve with a large enough effect; inconclusive = small, poorly fitted or top-dose-only effect; inactive = flat fitted curve, though single readings scatter; cell line not stated here;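 note: potency is the fitted concentration of half-maximal effect; % of control where 0% means no effect; nearly all actives have a fitted effect of over 65% in size; a mitochondrial uncoupler was the plate control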
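PINK1 protein level read as immunofluorescence by microplate cytometer in a fixed, stained stable cell line after 24 h exposure to five compound concentrations, with CCCP as control.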
Active calls of the source: *; u = inconclusive; x = not tested or not shown; [ ] = remark or other dose.

Under each structure: ClpP mod	Menin-MLL FL inh	gsp antag	Sfp PPTase inh	D2 agonist	gsp ag	PINK1 expr mod
- CC(C)CN(C(=O)CSc1nnc2ccccn12)c1c(N)n(CC(C)C)c(=O)[nH]c1=O
    -17%	-1.9	8%	-1%	1.3	11%	2.6%
- CN1CCN(C(=O)CN(CCc2ccccc2)S(C)(=O)=O)CC1
    -0.4%	-5.1	2%	9%	-0.6	7%	x
- O=C(Nc1ccc(Cl)c(Cl)c1)N(Cc1cccnc1)Cc1ccco1
    1.5%	3.8	u	5%	-0.4	27%	3.1%[38.3 µM]
- NC(=O)c1nsc(C(=O)N(Cc2ccc(F)cc2)C(C(=O)NCC2CCCO2)c2ccc(O)cc2)c1N (centres undefined)
    x	0.1	15%	-1%	-0.2	-10%[15.4 µM]	2.1%
- COc1ccc(Cn2c3ccc(OC)cc3c3nc4ccccc4nc32)cc1
    -1.0%	3.3	8%	1%	1.0	3%	u
- Cc1ccc(NC(=O)CNC2CCCCC2)cc1Cl
    -2.6%	1.0	3%	5%	-8.4	-35%	16%
- CCN(C(=O)COC(=O)c1cc(-c2ccccc2)nc2ccc(Br)cc12)C1CCS(=O)(=O)C1 (centres undefined)
    -2.2%	-0.1	u	-9%	0.5	59%[15.4 µM]	4.3%
- O=C(CSc1nnc(NCc2ccccc2)s1)N1CCOCC1
    -16%	0.6	10%	-8%	-3.4	u	-0.8%
- COc1ccc(-c2cc(C(F)(F)F)nc(-n3ccnc3)n2)cc1
    x	-0.8	8%	-12%	-7.1	29%	1.6%
- CCOc1ccc(N/C=C\C(=O)c2ccc3c(c2)OCO3)cc1
    1.4%	x	17%	x	-1.8	-11%	u
- Cc1cccc(NC(=O)Nc2c(C)n(C)n(-c3ccccc3)c2=O)c1C
    0.1%	x	-5%	20%	5.1	-5%	0.7%
- COc1ccc(C(c2nnnn2Cc2ccc(F)cc2)N2CCN(c3ccc(OC)cc3)CC2)cc1 (centres undefined)
    -1.6%	-2.0	-8%	u	0.1	-22%	-2.8%
- NS(=O)(=O)c1ccc(CCNC(=O)C2COc3ccccc3O2)cc1 (centres undefined)
    0.5%	2.8	4%	-10%	-3.3	-37%[inhibitor]	0.1%
- O=C(COC(=O)c1ccc(O)cc1)Nc1ccc(N2CCCCC2)cc1
    -0.5%	0.3	-20%	7%	-2.9	2%	-1.1%
- COc1ccc(NC(=O)c2cccnc2Sc2ccccc2)c(OC)c1
    -2.6%	3.0	-14%	11%	-6.8	0%[15.4 µM]	-1.3%
- COc1cc([N+](=O)[O-])ccc1N=Nc1c(N)[nH]n(-c2ccccc2)c1=O
    x	-7.9	4%	12%	3.7	-1%[15.4 µM]	0.7%
- COc1ccccc1CNC(=O)CN1C(=O)NC2(CCCc3sccc32)C1=O (centres undefined)
    1.9%	x	7%	x	-1.3	u	4.5%
- CCCS(=O)(=O)N1CCC(C(=O)NCCC(C)C)CC1
    0.1%	3.8	4%	14%	3.3	u	-2.3%
- Cc1cc(N(CN2CCCC2=O)C(=O)c2ccccc2)no1
    -1.4%	-2.6	-5%	11%	-0.9	11%	x
- FC(F)(F)c1cnc(Oc2ccccc2-c2nnco2)c(Cl)c1
    -2.1%	5.7	6%	1%	-3.5	8%	0.2%
- COC1(C)CC2C(CC1OC(=O)c1cc([N+](=O)[O-])cc([N+](=O)[O-])c1)C2(C)C (centres undefined)
    x	-7.9	-5%	u	u	4%[15.4 µM]	0.6%
- Cc1ccccc1-c1nn(-c2ccc(F)cc2F)cc1CNCC(C)O (centres undefined)
    -1.8%	-2.8	8%	16%	-7.2	-32%[inhibitor]	0.4%
- CC1(C(=O)N2CCC(CO)(Cc3cccc(C(F)(F)F)c3)CC2)CC1
    -2.1%	-0.9	-1%	1%	-1.5	-38%[inhibitor]	6.8%
- O=C(CCC(=O)N1CCN(Cc2ccc(F)cc2)CC1)Nc1nnc(C(F)(F)F)s1
    -1.4%	2.3	-16%	30%[activator]	1.4	15%	-2.3%
- O=c1cc(CSc2ccccn2)c2ccccc2[nH]1
    1.4%	4.0	3%	3%	-3.4	-34%[inhibitor]	-0.6%
- O=C(NCc1ccccc1)c1cccc(F)c1F
    x	-5.1	14%	-3%	-0.5	13%[15.4 µM]	0.4%
- COc1ccccc1NC(=O)CCNC(=O)Cn1ccc2ccccc2c1=O
    -13%	-1.6	5%	20%	0.1	8%	-4.3%[38.3 µM]
- C/C(CC(=O)Nc1ccc(N(C)C)cc1)=N\NC(=O)c1ccc(C(C)(C)C)cc1
    -0.4%	-0.2	-1%	4%	-2.0	-38%[inhibitor]	2.6%
- CCCCC(=O)Nc1cc(OCC)c(NC(=S)NC)cc1OCC
    x	-1.4	-5%	u	-1.6	u	1.9%
- Cc1cc2nc(=O)c(/C=C3\C=Nc4ccccc43)c(N)n2o1
    9.7%	u	1%	-8%	-4.6	28%	2.7%
- CC1(C)COCN1C(=O)c1ccc(C#N)cc1
    -3.0%	0.6	12%	12%	10	-3%	-0.3%
- COc1cc(/C=C2/NC(=O)N(CC(=O)Nc3ccc(C)cc3)C2=O)ccc1Oc1ccc([N+](=O)[O-])cn1
    -0.3%	-0.2	10%	13%	2.3	u	-1.9%
- COc1ccc(CCNC(=O)C2CCN(S(=O)(=O)c3ccc(SC)cc3)CC2)cc1
    2.3%	1.9	-18%	-5%	4.0	4%	-0.2%
- CCCCc1nnc(SC(C)C(=O)Nc2nccs2)n1C (centres undefined)
    0.4%	x	12%	26%	-5.0	-12%	0.5%
- Cc1ccc(C(=O)NCCN2CCOCC2)c(Cl)c1
    2.4%	0.6	10%	22%	0.3	-4%	-4.3%
- CCOC(=O)Cc1csc(NC(=O)CCc2ccccc2)n1
    0.4%	-8.6	-14%	-2%	2.8	u	1.7%
- CCC/C(O)=C1\C(=O)CC(c2ccccc2)CC1=NC(C)C(=O)O (centres undefined)
    -0.1%	0.0	3%	6%	-4.8	1%[15.4 µM]	2.3%
- CCN(Cc1ccccc1)S(=O)(=O)c1ccc(C(=O)N(CCCN(C)C)c2nc3cc(C)cc(C)c3s2)cc1
    x	x	4%	x	3.2	0%[15.4 µM]	-1.6%
- C[C@H]1CN([C@@H](C)CO)C(=O)c2cc(NC(=O)C3CCCCC3)ccc2O[C@H]1CN(C)C(=O)Nc1ccc2c(c1)OCO2
    -1.9%	x	2%	x	-3.0	x	0.4%
- N#C/C(=C(O)\C=C\c1ccccc1)c1nc2ccccc2[nH]1
    -5.1%	2.0	1%	-21%	-4.3	0%	3.5%
- COc1cc(C(C)=O)ccc1OC(=O)c1cc2cccc(OC)c2oc1=O
    7.3%	-7.2	-16%	-5%	1.9	11%	-0.4%
- COc1cc(C(=O)Nc2cccc3cccnc23)cc(OC)c1OC
    -18%	0.6	-13%	-3%	2.9	0%	2.4%
- COc1ccccc1NC1=C(Cl)C(=O)N(c2ccccc2)C1=O
    1.2%	-0.4	-23%	-2%	1.1	0%	0.6%
- CCOc1ccc(C(C)(C)C)cc1S(=O)(=O)N1CCOCC1
    -1.1%	-0.5	6%	1%	-1.9	-11%	-1.9%
- CCCC(=O)Nc1nn(C)c2nc3c(C)cccc3cc12
    -12%	0.0	-18%	23%	1.3	21%	4.6%
- CCC(C)/C(C)=N/NC(=O)C1COc2ccccc2O1 (centres undefined)
    0.9%	0.0	12%	19%	-2.3	-95%[inhibitor]	1.9%
- FC(F)(F)c1cc(-c2ccccc2)nc(N2CCCCC2)n1
    u	1.5	7%	9%	1.3	2%	6.9%
- COc1cccc(-c2nc(=S)c3c(o2)CCCC3)c1
    1.4%	-0.9	-8%	-19%	-4.3	1%	1.9%
- O=C(CN(C(=O)CNC(=O)c1cccs1)c1ccccc1)NC1CCCCC1
    x	2.6	0%	10%	-2.7	15%[15.4 µM]	0.3%
- Cc1cccc(CNc2ncnc3ccc(-c4ccc5c(c4)OCO5)cc23)c1
    x	0.6	x	-4%	x	x	u

Molecules above that contain a tert-butyl group, in the order listed:
Under each structure: ClpP mod	Menin-MLL FL inh	gsp antag	Sfp PPTase inh	D2 agonist	gsp ag	PINK1 expr mod
- C/C(CC(=O)Nc1ccc(N(C)C)cc1)=N\NC(=O)c1ccc(C(C)(C)C)cc1
    -0.4%	-0.2	-1%	4%	-2.0	-38%[inhibitor]	2.6%
- CCOc1ccc(C(C)(C)C)cc1S(=O)(=O)N1CCOCC1
    -1.1%	-0.5	6%	1%	-1.9	-11%	-1.9%

Additional records follow:
Under each structure: ClpP mod	Menin-MLL FL inh	gsp antag	Sfp PPTase inh	D2 agonist	gsp ag	PINK1 expr mod
- Cc1ccccc1NC(=O)C(C)SCc1ccccc1 (centres undefined)
    x	0.5	1%	19%	0.0	-110%[inhibitor]	0.6%
- O=C(NC1CCCCC1)C1CC=CCC1C(=O)OCC(Cl)=C(Cl)Cl (centres undefined)
    -3.7%	-1.1	-4%	18%	-2.3	u	2.0%
- COc1ccc(OC)c(NC(=O)C2CCCN2S(=O)(=O)c2cccc3nsnc23)c1 (centres undefined)
    -2.4%	x	-10%	15%	-1.5	-43%[inhibitor]	1.0%
- Cc1nc(Cl)c(C#N)cc1-c1ccccc1
    -2.0%	2.4	2%	10%	-0.7	7%	-2.9%[38.3 µM]
- Cc1cccc(NC(=S)N2CCC(c3nc4ccccc4s3)CC2)c1
    -0.1%	-1.3	-29%	5%	3.1	4%	-3.8%[38.3 µM]
- Cc1ccc(CNc2cccnc2)cc1
    -15%	1.6	2%	13%	-1.3	10%	2.5%
- O=c1ccnc2n1COCS2
    -0.7%	2.4	8%	6%	-3.2	15%	-0.3%
- O=C(NCc1ccccc1)c1onc(CS(=O)(=O)c2ccccn2)c1C(=O)NCc1ccccc1
    0.6%	x	u	x	0.0	x	0.5%
